Screening results: PubChem, Broad Institute
rRNA inh HTS: reduced GFP signal of wild-type E. coli, primary screen, bacterial rRNA inhibitor project, GFP/RFP fluorescence, OD600, single point; E. coli WT GFP vs humanized-ribosome RFP mutants, 24 h; stronger effect = lower value; DMSO median 0, no signal -100; GFP signal change (wild-type ribosome), % (concentration not given with the values); hit rate 1.6% among 350,000;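 active = significant combined selectivity score with lowered wild-type GFP, culture density cut under 30%, mutant RFP and density less affected; inactive = any of these conditions unmet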; note: one replicate is shown; some compounds called inactive have numbers as strong as hits
rRNA inh HTS OD600: recorded beside rRNA inh HTS, whose call it bears; OD600 change, %; measured here: OD600 growth;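 optical density of the mix in the first replicate; 0 = DMSO median and -100 = no signal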
rRNA inh HTS RFP: further read-out of rRNA inh HTS, marked with its call; RFP signal change, %; measured here: RFP humanized mutant strains;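 first replicate; 0 = DMSO median and -100 = no signal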
Numbers without * were called inactive; & = joins results of further samples. Not all compounds are listed. The share of hits here may be higher or lower than overall.

Screening CO[C@@H]1CN(C)C(=O)c2ccc(NC(=O)c3ccccc3F)cc2OC[C@@H](C)N(C)C[C@@H]1C returned rRNA inh HTS 1, rRNA inh HTS OD600 2 and rRNA inh HTS RFP -0.4.
For C[C@H](CO)N1C[C@H](C)[C@H](CN(C)C(=O)Nc2cccc3ccccc23)OCCCC[C@H](C)Oc2ccc(NS(=O)(=O)c3cccs3)cc2C1=O the results were rRNA inh HTS 0, rRNA inh HTS OD600 -1 and rRNA inh HTS RFP -0.9.
`CO[C@@H]1CN(C)C(=O)c2ccc(NC(=O)c3ccc(F)cc3)cc2OC[C@H](C)N(C(=O)CC2CC2)C[C@H]1C` gave rRNA inh HTS -1, rRNA inh HTS OD600 3 and rRNA inh HTS RFP 1.0.
O=S1(=O)N[C@@H](Cc2ccccc2)COc2cccc(NCCO)c21 was read as rRNA inh HTS 4, rRNA inh HTS OD600 -2 and rRNA inh HTS RFP 0.3.
`COc1ccc(CN(C)C[C@H]2OCCCC[C@@H](C)Oc3ccc(NS(C)(=O)=O)cc3C(=O)N([C@@H](C)CO)C[C@H]2C)cc1` gave rRNA inh HTS -1, rRNA inh HTS OD600 2 and rRNA inh HTS RFP -1.0.
For CC(C)NC(=O)Nc1ccc2c(c1)C(=O)N([C@H](C)CO)C[C@@H](C)[C@H](CN(C)S(=O)(=O)c1cccs1)O2 the results were rRNA inh HTS 1, rRNA inh HTS OD600 7 and rRNA inh HTS RFP 1.9.
`C[C@@H]1CN([C@@H](C)CO)C(=O)c2cc(Br)cnc2O[C@H]1CN(C)C(=O)CCN1CCCCC1` gave rRNA inh HTS 3, rRNA inh HTS OD600 0 and rRNA inh HTS RFP -3.2.
CCCNC(=O)N1[C@H](CO)[C@H](c2ccccc2C2=CCCC2)[C@@H]1C#N was read as rRNA inh HTS 5, rRNA inh HTS OD600 -7 and rRNA inh HTS RFP -6.0.
Screening CCNC(=O)C[C@H]1CC[C@@H](NC(=O)C2CCOCC2)[C@@H](CO)O1 returned rRNA inh HTS 3, rRNA inh HTS OD600 12 and rRNA inh HTS RFP -4.4.
COc1ccc2c3c(n(C)c2c1)[C@H](CO)N(C(=O)c1ccncc1)CC31CN(C(C)=O)C1 was read as rRNA inh HTS 4, rRNA inh HTS OD600 7 and rRNA inh HTS RFP -0.9.
Screening COc1cccc(S(=O)(=O)N2CC[C@H]3[C@@H](CO)N(C)c4ccc(C#Cc5cccnc5)cc4[C@H]32)c1 returned rRNA inh HTS -5, rRNA inh HTS OD600 4 and rRNA inh HTS RFP -0.1.
COCC#Cc1ccc2c(c1)O[C@@H](CN(C)CC1CC1)[C@@H](C)CN([C@@H](C)CO)S2(=O)=O was read as rRNA inh HTS 8, rRNA inh HTS OD600 16 and rRNA inh HTS RFP -0.2.
For O=C(Cc1ccccn1)N[C@H]1CC[C@H](CCNC(=O)c2cc(Cl)cc(Cl)c2)O[C@@H]1CO the results were rRNA inh HTS -2, rRNA inh HTS OD600 -2 and rRNA inh HTS RFP 1.3.
For C[C@@H]1CN([C@H](C)CO)C(=O)c2cccc(NC(=O)C3CC3)c2O[C@H]1CN(C)S(C)(=O)=O the results were rRNA inh HTS 1, rRNA inh HTS OD600 -1 and rRNA inh HTS RFP -1.8.
COc1ccc(-c2cnc3c(c2)C(=O)N([C@@H](C)CO)C[C@@H](C)[C@H](CN(C)C(=O)Cc2cccnc2)O3)cc1 was read as rRNA inh HTS 1, rRNA inh HTS OD600 -2 and rRNA inh HTS RFP -2.5.
`C[C@@H]1CN([C@@H](C)CO)C(=O)Cc2cc(NS(C)(=O)=O)ccc2O[C@H]1CN(C)Cc1ccc2c(c1)OCO2` gave rRNA inh HTS -2, rRNA inh HTS OD600 2 and rRNA inh HTS RFP -0.9.
Screening C[C@@H]1CN([C@H](C)CO)C(=O)CCCn2cc(nn2)CO[C@@H]1CN(C)C(=O)Nc1ccccc1C(F)(F)F returned rRNA inh HTS -1, rRNA inh HTS OD600 4 and rRNA inh HTS RFP -1.6.
`CCCNC(=O)C[C@@H]1C[C@@H]2c3cc(NC(=O)Nc4ccccc4)ccc3O[C@@H]2[C@H](CO)O1` gave rRNA inh HTS 3, rRNA inh HTS OD600 10 and rRNA inh HTS RFP -2.1.
`COc1ccc(CN(C)C[C@@H]2OCCCC[C@@H](C)Oc3ccc(NC(=O)Nc4ccc(OC)cc4)cc3C(=O)N([C@H](C)CO)C[C@@H]2C)cc1` gave rRNA inh HTS 3, rRNA inh HTS OD600 3 and rRNA inh HTS RFP 9.9.
Cc1ccc(-n2sc3cc(F)ccc3c2=O)c(C)c1 was read as rRNA inh HTS -53, rRNA inh HTS OD600 -79 and rRNA inh HTS RFP -20.
`O=C(Nc1ccc2c(c1)OCCO2)C(c1ccnc2ccccc12)N1CCN(C/C=C/c2ccccc2)CC1` (stereo unspecified) gave rRNA inh HTS -17, rRNA inh HTS OD600 -18 and rRNA inh HTS RFP 7.3.
`C[C@H](CO)N1C[C@H](C)[C@H](CN(C)C(=O)Nc2ccnc(N3CCOCC3)c2)OCc2ccccc2-c2ccccc2C1=O` gave rRNA inh HTS 5, rRNA inh HTS OD600 1 and rRNA inh HTS RFP -0.7.
Screening Cc1ccc(S(=O)(=O)Nc2ccc3c(c2)CC(=O)N([C@@H](C)CO)C[C@@H](C)[C@H](CN(C)S(=O)(=O)c2ccc(Cl)cc2)O3)cc1 returned rRNA inh HTS -2, rRNA inh HTS OD600 -5 and rRNA inh HTS RFP -0.7.
For C[C@@H]1CN([C@@H](C)CO)C(=O)c2cc(C3=CCCCC3)cnc2O[C@@H]1CN(C)C(=O)Cc1cccnc1 the results were rRNA inh HTS 1, rRNA inh HTS OD600 7 and rRNA inh HTS RFP -0.8.
For Cc1noc(C)c1NC(=O)N(C)C[C@@H]1Oc2c(NC(=O)Nc3ccccc3)cccc2C(=O)N([C@H](C)CO)C[C@H]1C the results were rRNA inh HTS 2, rRNA inh HTS OD600 4 and rRNA inh HTS RFP -3.3.
CN1CCN(C(=O)C[C@@H]2CC[C@H]3[C@@H](COC[C@@H](O)CN3CC3CCCCC3)O2)CC1 was read as rRNA inh HTS 2, rRNA inh HTS OD600 12 and rRNA inh HTS RFP -1.6.
Screening CCCC(=O)N1CC2(CCN(C(=O)CC3CC3)CC2)c2c(n(C)c3cc(OC)ccc23)[C@H]1CO returned rRNA inh HTS -7, rRNA inh HTS OD600 -4 and rRNA inh HTS RFP -0.1.
`O=C(NCC[C@@H]1CC[C@@H](NS(=O)(=O)Cc2ccccc2)[C@H](CO)O1)C1CCC1` gave rRNA inh HTS 1, rRNA inh HTS OD600 0 and rRNA inh HTS RFP -1.7.
CC(=O)N(C)C[C@H]1OCc2ccccc2-c2ccccc2C(=O)N([C@H](C)CO)C[C@H]1C was read as rRNA inh HTS 0, rRNA inh HTS OD600 4 and rRNA inh HTS RFP 2.4.
C[C@@H]1CN([C@@H](C)CO)S(=O)(=O)c2ccc(C3=CCCCC3)cc2O[C@H]1CN(C)C was read as rRNA inh HTS 1, rRNA inh HTS OD600 -5 and rRNA inh HTS RFP 0.3.
For C[C@@H]1CN([C@H](C)CO)C(=O)Cc2cc(NC(=O)Nc3ccccc3)ccc2O[C@H]1CN(C)Cc1ccccc1 the results were rRNA inh HTS 3, rRNA inh HTS OD600 -6 and rRNA inh HTS RFP -3.1.
For COc1ccc(NC(=O)N2CCCCN3[C@H](CO)[C@H](c4ccc(-c5ccccc5F)cc4)[C@@H]3C2)cc1 the results were rRNA inh HTS -1, rRNA inh HTS OD600 -17 and rRNA inh HTS RFP 3.7.
Screening O=C(C[C@H]1C[C@@H]2c3cc(NC(=O)Cc4ccncc4)ccc3O[C@@H]2[C@H](CO)O1)NCCN1CCCCC1 returned rRNA inh HTS 1, rRNA inh HTS OD600 1 and rRNA inh HTS RFP -0.8.
For O=C(C[C@H]1CC[C@@H]2[C@H](COC[C@H](O)CN2Cc2cccc(Cl)c2)O1)N1CCOCC1 the results were rRNA inh HTS 4, rRNA inh HTS OD600 21 and rRNA inh HTS RFP -1.5.
CCCC(=O)Nc1ccc2c(c1)C(=O)N(C)[C@H]1CC[C@@H](CC(=O)NC3CCCC3)O[C@@H]1CO2 was read as rRNA inh HTS 0, rRNA inh HTS OD600 2 and rRNA inh HTS RFP -1.1.
Screening CO[C@@H]1CN(C)C(=O)c2cc(NC(C)=O)ccc2OC[C@H](C)N(Cc2cncnc2)C[C@@H]1C returned rRNA inh HTS -1, rRNA inh HTS OD600 -3 and rRNA inh HTS RFP -0.5.
Screening O=C(CC1CC1)N[C@H]1CC[C@H](CCNS(=O)(=O)c2ccc(F)cc2)O[C@H]1CO returned rRNA inh HTS 4, rRNA inh HTS OD600 3 and rRNA inh HTS RFP -1.3.
`Cc1ccccc1-c1ccc2c(c1)O[C@@H](CN(C)C(=O)c1ccccn1)[C@@H](C)CN([C@H](C)CO)S2(=O)=O` gave rRNA inh HTS -5, rRNA inh HTS OD600 -3 and rRNA inh HTS RFP -2.5.
For Cc1noc(C)c1S(=O)(=O)Nc1cccc2c1O[C@H](CN(C)Cc1ccc3c(c1)OCO3)[C@H](C)CN([C@H](C)CO)C2=O the results were rRNA inh HTS -2, rRNA inh HTS OD600 3 and rRNA inh HTS RFP -3.5.
`O=C(C[C@H]1C=C[C@H](NC(=O)Nc2cccc(F)c2)[C@H](CO)O1)NCC1CC1` gave rRNA inh HTS 0, rRNA inh HTS OD600 -1 and rRNA inh HTS RFP -1.0.
O=C(CNC(=O)C12CC3CC(CC(C3)C1)C2)N1CCCC(C(F)(F)F)C1 (stereo unspecified) was read as rRNA inh HTS 6, rRNA inh HTS OD600 9 and rRNA inh HTS RFP -0.2.
COc1ccccc1S(=O)(=O)N1CC[C@H]2[C@H](CO)Nc3ccc(-c4ccc(C#N)cc4)cc3[C@H]21 was read as rRNA inh HTS -10, rRNA inh HTS OD600 -4 and rRNA inh HTS RFP 3.1.
For C[C@@H]1CCCCO[C@@H](CN(C)S(=O)(=O)c2ccc(Cl)cc2)[C@@H](C)CN([C@@H](C)CO)C(=O)c2cc(NS(=O)(=O)c3ccc(Cl)cc3)ccc2O1 the results were rRNA inh HTS 4, rRNA inh HTS OD600 4 and rRNA inh HTS RFP 1.3.
For CN1CCN(C(=O)c2ccc(-c3ccc(F)c(F)c3)c3ccoc23)CC1 the results were rRNA inh HTS -2, rRNA inh HTS OD600 6 and rRNA inh HTS RFP 1.0.
`Cc1cc(N2CCN(C(C(=O)NC3CCCC3)c3ccc(-c4ccccc4)cc3)CC2)c2ccccc2n1` (stereo unspecified) gave rRNA inh HTS -15, rRNA inh HTS OD600 -24 and rRNA inh HTS RFP 6.6.
`O=C(Nc1ccccc1Cl)c1cc(C2CCCN(C(=O)c3cccc(O)c3)C2)on1` (stereo unspecified) gave rRNA inh HTS -58, rRNA inh HTS OD600 -76 and rRNA inh HTS RFP -20.
`C[C@H]1CN([C@@H](C)CO)C(=O)c2cc(NC(=O)Nc3ccc(C(F)(F)F)cc3)ccc2O[C@@H]1CN(C)CC1CCCCC1` gave rRNA inh HTS 8, rRNA inh HTS OD600 7 and rRNA inh HTS RFP 0.3.
Screening O=C([C@H]1[C@H](CO)[C@H]2Cn3c(ccc(C4=CCCC4)c3=O)[C@@H]1N2C(=O)c1ccncc1)N1CCOCC1 returned rRNA inh HTS 3, rRNA inh HTS OD600 13 and rRNA inh HTS RFP 0.2.
CO[C@H]1CN(C)C(=O)c2ccc(NC(C)=O)cc2OC[C@H](C)N(Cc2ccncc2)C[C@H]1C was read as rRNA inh HTS -1, rRNA inh HTS OD600 1 and rRNA inh HTS RFP -3.7.
C[C@@H]1CN([C@@H](C)CO)C(=O)c2c(c3ccccc3n2C)-c2ccccc2CO[C@@H]1CN(C)S(=O)(=O)c1ccsc1 was read as rRNA inh HTS 2, rRNA inh HTS OD600 4 and rRNA inh HTS RFP -3.6.
For C[C@@H]1CN([C@H](C)CO)C(=O)c2cc(Br)cnc2O[C@@H]1CN(C)Cc1ccc(F)cc1 the results were rRNA inh HTS 12&2, rRNA inh HTS OD600 9&11 and rRNA inh HTS RFP -1.2&0.9.
Screening O=C(NCC[C@H]1CC[C@@H](NC(=O)C2CCC2)[C@H](CO)O1)c1cc(Cl)cc(Cl)c1 returned rRNA inh HTS -3, rRNA inh HTS OD600 -5 and rRNA inh HTS RFP -0.2.

Gathered by group: the entries above with a Cl atom (6)
For O=C(Cc1ccccn1)N[C@H]1CC[C@H](CCNC(=O)c2cc(Cl)cc(Cl)c2)O[C@@H]1CO the results were rRNA inh HTS -2, rRNA inh HTS OD600 -2 and rRNA inh HTS RFP 1.3.
Screening Cc1ccc(S(=O)(=O)Nc2ccc3c(c2)CC(=O)N([C@@H](C)CO)C[C@@H](C)[C@H](CN(C)S(=O)(=O)c2ccc(Cl)cc2)O3)cc1 returned rRNA inh HTS -2, rRNA inh HTS OD600 -5 and rRNA inh HTS RFP -0.7.
For O=C(C[C@H]1CC[C@@H]2[C@H](COC[C@H](O)CN2Cc2cccc(Cl)c2)O1)N1CCOCC1 the results were rRNA inh HTS 4, rRNA inh HTS OD600 21 and rRNA inh HTS RFP -1.5.
For C[C@@H]1CCCCO[C@@H](CN(C)S(=O)(=O)c2ccc(Cl)cc2)[C@@H](C)CN([C@@H](C)CO)C(=O)c2cc(NS(=O)(=O)c3ccc(Cl)cc3)ccc2O1 the results were rRNA inh HTS 4, rRNA inh HTS OD600 4 and rRNA inh HTS RFP 1.3.
`O=C(Nc1ccccc1Cl)c1cc(C2CCCN(C(=O)c3cccc(O)c3)C2)on1` (stereo unspecified) gave rRNA inh HTS -58, rRNA inh HTS OD600 -76 and rRNA inh HTS RFP -20.
Screening O=C(NCC[C@H]1CC[C@@H](NC(=O)C2CCC2)[C@H](CO)O1)c1cc(Cl)cc(Cl)c1 returned rRNA inh HTS -3, rRNA inh HTS OD600 -5 and rRNA inh HTS RFP -0.2.
